NPYLR7 ag = mosquito NPYLR7 agonism. HEK293T NPYLR7/Galpha15, GCaMP6s calcium fluorescence. activation, % at 10 µM. 0.15% of 270,000 active; in the data active = activation above about 40%;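 note: 0% = vehicle and 100% = reference agonist at the receptor; some compounds past the cut are filed as inactive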
NPYLR7 ag max-min = further read-out of NPYLR7 ag, marked with its call; activation, %; measured here: Max-Min RFU normalised activation; some inactives read as strong as hits;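 span of the calcium signal over five minutes; 0% = vehicle and 100% = native peptide agonist; compound fluorescence can raise it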
The depositor's hits bear a star; & = joins results of further samples. The list is partial. The share of hits here may be higher or lower than overall.

Sequence of screens – NPYLR7 ag | NPYLR7 ag max-min
> COCCCNC(=O)CN1C(=O)CSC(c2ccccc2Cl)c2c(-c3ccccc3)nn(-c3ccc(C)cc3)c21 (configuration not stated)
  7.2 | 7.2
> N#CC(/C=C/c1ccccc1)N1CCOCC1 (configuration not stated)
  -15.5 | -23.6
> COc1ccc(C)cc1-n1c(=S)[nH]c2ccccc2c1=O
  11.3 | 5.7
> Cc1c(P(=S)(c2ccccc2)c2ccccc2)[n+]2ccccc2n1C
  6.4 | 3.4
> COCCCNC(=O)CN1C(=O)CSC(c2ccccc2F)c2c(C(C)(C)C)nn(C(C)(C)C)c21 (configuration not stated)
  11.6 | 1.7
> CCn1nc(C)c(CNC(C)Cc2cccc(OC)c2)c1C (configuration not stated)
  -0.2 | 10.0
> Cc1ccc(C2c3c(c4ccccc4oc3=O)OC(=N)C2C#N)o1 (configuration not stated)
  -1.7 | -8.5
> COP(=O)(OC)C(O)(CCc1ccccc1)C[N+](=O)[O-] (configuration not stated)
  2.9 | 2.8
> CC(=C(C#N)P(=S)(c1ccccc1)c1ccccc1)N1CCCC1
  10.5 | 6.4
> COc1ccc(-n2c(SCC3CCCO3)nc3ccccc3c2=O)cc1Cl (configuration not stated)
  0.0&-1.6 | -2.4&10.9
> CCC1(c2ccccc2)C(=O)NC(=O)N(C(=O)c2ccc(OC)cc2)C1=O (configuration not stated)
  5.5 | 1.5
> CCc1ccc(CN2CCC3(CCNCC3)C2)nc1
  0.4 | -2.0
> CN(C)P1(N(C)C)=Nc2c(c(N)nn2C)C(c2ccccc2)=N1
  -3.9 | -4.6
> CS(=O)(=O)c1ccc(S(=O)(=O)N2CCN(CCOC(c3ccccc3)c3ccc(N4CCOCC4)cc3)CC2)cc1 (configuration not stated)
  3.1 | 0.6
> CN1/C(=C\C=C2C(=O)NC(=O)NC2=O)C(C)(C)c2ccccc21
  13.3 | 11.8
> CC(=O)c1ccc(OCC(=O)N2CCN(C)C3(CCN(C)CC3)C2)cc1
  -0.1 | 16.3
> C[C@]12CCC(=O)C=C1C=C[C@@H]1[C@@H]2CC[C@@]2(C)[C@H]1CC[C@@]2(O)CCC(=O)O
  0.8&0.1 | -2.1&-5.1
> CC(C)(C)c1nn(-c2cccc(Cl)c2)c2c1C(c1ccccc1F)SCC(=O)N2CC(=O)NCc1ccncc1 (configuration not stated)
  20.7 | 7.6
> C#CCN1C(=O)[C@]2(C)[C@H](c3ccccc31)[C@@H](C(=O)O)CN2C(=O)c1cccs1
  14.2 | 15.7
> O=S(=O)(NC1CN2CCC1CC2)c1ccc(Cl)cc1 (configuration not stated)
  8.9 | 11.3
> COC(=O)c1cc2c(s1)=NC=NP=2(N1CCOCC1)N1CCOCC1
  1.0 | 3.2
> CC(N)C(=O)c1cccs1 (configuration not stated)
  11.4 | 9.3
> O=c1oc2ccccc2c2c1C(c1cccnc1)c1c(c3ccccc3oc1=O)O2
  1.4 | -0.3
> CC1(C)CC2(CC(C)(C)N1)OCC(CO)O2 (configuration not stated)
  -0.8 | -2.9
> COc1ccc2c(c1)CC1(CC2)NCCc2[nH]cnc21 (configuration not stated)
  1.2 | -0.4
> CCOc1ccc(CN2CCN3CCN(C)C(=O)C3C2)cn1 (configuration not stated)
  8.1 | 7.2
> COc1ccc(-n2nc(C(C)(C)C)c3c2N(CC(=O)O)C(=O)CSC3c2cccc(F)c2)cc1 (configuration not stated)
  -6.4 | -8.8
> CC(C)(C)c1nn(-c2cccc(F)c2)c2c1C(c1ccccc1Cl)SCC(=O)N2CC(=O)NCC1CCCO1 (configuration not stated)
  11.7 | 0.7
> CC(C)c1ccc(NC(=O)C(C2CCCC2)N2CCN(C(=O)COc3ccccc3)CC2)cc1 (configuration not stated)
  -3.1 | -0.6
> O=C(c1cccc(Cl)c1)C1CCCN(C2CCCCC2)C1 (configuration not stated)
  1.7 | -10.8
> O=C(c1c(F)cc(F)cc1F)N1CCN(CCOC(c2ccccc2)c2ccccc2)CC1
  14.8 | 5.2
> CC[C@@H]1C=C/C=C/C[C@H](C)[C@@H](O)[C@](C)(O)C(=O)[C@H](C)[C@@H](O)[C@H](C)C(=O)[C@H](C)[C@@H](O)[C@H](C)/C=C/C(=O)O[C@H]2[C@@H](C)[C@@H](CC1)O[C@@]1(CC[C@@H](C)[C@@H](C[C@H](C)O)O1)[C@@H]2C
  -9.1 | -14.2
> Clc1ccc(NC2=NCCCS2)cc1Cl
  1.3 | 1.4
> S=P(C=C(Cl)c1ccccc1)(C=C(Cl)c1ccccc1)N1CCOCC1
  2.4 | -2.7
> CCc1c(C(N)=O)cnn1C(C)(C)C
  4.1 | 8.5
> N#CC1C(=N)Oc2c(c(=O)oc3ccccc23)C1c1ccc(O)cc1 (configuration not stated)
  -1.4 | -8.7
> S=P(NN=C1CN2CCC1CC2)(c1ccccc1)c1ccccc1
  7.8 | 5.4
> O=P(O)(O)C12CC3CC(CC(C3)C1)C2
  2.3 | 4.5
> O=C1CN=C(c2cccc(Br)c2)c2oc3ccccc3c2N1
  -4.5 | -6.6
> S=c1n(CC2CCCO2)nnn1CN1CC=C(c2ccccc2)CC1 (configuration not stated)
  0.0 | -2.8
> O=C(O)CSC(c1ccc(F)cc1)c1ccc(F)cc1
  4.6&-1.8 | 0.5&-4.2
> Cc1nc(N)nc(C)c1CC(=O)N1CCCC2(CCNC2)C1 (configuration not stated)
  -0.1 | 3.9
> C[C@@H]1CC[C@H]2[C@@H](C)C(=O)O[C@@H]3O[C@]4(C)CC[C@@H]1[C@]32OO4
  -11.0 | -13.6
> CCN(CC)C(=O)c1ccc(NC(=O)c2c(C)noc2C)cc1
  -9.2 | -12.2
> CCC1CCCCN1P(=O)(c1ccc(C)o1)C(C)(C)C (configuration not stated)
  6.7 | 5.9
> Cc1nn(CC(C)C)c(Cl)c1C(=O)NCc1ccc(F)cc1
  5.2 | 2.3
> CCOC(=O)[C@H]1CN(C(=O)c2cc(C)oc2C)[C@]2(C)C(=O)N(CC3CC3)c3ccccc3[C@H]12
  -9.3 | 0.8
> Cn1nnc(C(Br)CBr)n1 (configuration not stated)
  -2.9 | -7.3
> CNC(=O)Oc1cccc2ccccc12
  -11.7 | -21.4
> C[C@]12CCC3[C@@H](CC[C@@]45O[C@@H]4C(O)=C(C#N)C[C@]35C)C1CC[C@@H]2O (some centres not stated)
  -1.7 | -2.5
> O=C(O)c1cccnc1CN1CCCC(C(=O)c2ccccc2)C1 (configuration not stated)
  -2.0 | -1.9
> Cc1cc(CN(C)C)c(OC(=O)N(C)C)cc1C
  17.3 | 7.0
> O=C(Cc1ccc(F)cc1)N1CCN(Cc2ccc(-c3noc(C4CCCC4)n3)cc2)CC1
  9.0 | 23.8
> CN1CCC2(CC1)CN(C(=O)Cc1c[nH]c3ccccc13)CCCN2C
  2.4 | 0.6
> CN1CCC(N(C)CCC2CCOCC2)CC1
  4.5 | 1.2
> C=CCSSCC=C
  2.9 | -4.3
> O=S(=O)(c1ccc(C(F)(F)F)cc1)N1CCN(CCOC(c2ccccc2)c2ccc(N3CCOCC3)cc2)CC1 (configuration not stated)
  3.2 | 1.5
> CCC(COC(=O)c1cc(OC)c(OC)c(OC)c1)(c1ccccc1)N(C)C (configuration not stated)
  -14.7&-12.1&-4.5 | -15.3&-18.9&-8.0
> O=C(c1ccc([N+](=O)[O-])o1)N1CCN(CCOC(c2ccccc2)c2cccc(C(F)(F)F)c2)CC1 (configuration not stated)
  -0.3 | 10.6
> CCc1cc2c(=O)n(CCC(=O)Nc3ccc(C#N)c(Cl)c3)cnc2s1
  9.9 | 4.7

Retrieved by structure from above:
Sequence of screens – NPYLR7 ag | NPYLR7 ag max-min
> CCC1CCCCN1P(=O)(c1ccc(C)o1)C(C)(C)C (configuration not stated)
  6.7 | 5.9
> O=C(Cc1ccc(F)cc1)N1CCN(Cc2ccc(-c3noc(C4CCCC4)n3)cc2)CC1
  9.0 | 23.8
> Cn1nnc(C(Br)CBr)n1 (configuration not stated)
  -2.9 | -7.3

A stretch from further up, for reference:
Sequence of screens – NPYLR7 ag | NPYLR7 ag max-min
> O=C(c1ccc([N+](=O)[O-])o1)N1CCN(CCOC(c2ccccc2)c2cccc(C(F)(F)F)c2)CC1 (configuration not stated)
  -0.3 | 10.6
> CCc1cc2c(=O)n(CCC(=O)Nc3ccc(C#N)c(Cl)c3)cnc2s1
  9.9 | 4.7

Next part:
Sequence of screens – NPYLR7 ag | NPYLR7 ag max-min
> COc1ccc(C2=CCN(Cc3cccc4c3OCCO4)CC2)cc1
  -8.5 | 779.3
> CCC1(c2ccccc2)C(=O)N(COC)C(=O)N(COC)C1=O
  11.1 | 6.5
> CN(Cc1ccno1)C1CCC2(CCNCC2)CC1
  5.4 | 4.4
> NCC1(c2cccc(Br)c2)CCCC1
  0.3 | -3.1
> N#Cc1ccccc1NC(=O)c1cccn(Cc2ccc(Cl)cc2Cl)c1=O
  12.1 | 4.3
> COc1cc(-c2cccc3c2CCNC3)ccc1O
  6.4 | 4.3
> COc1ccc2c(c1)c(CCN1CCOCC1)c(C)n2C(=O)c1cccc(Cl)c1Cl
  16.2 | 8.8
> c1ccc(CCCCN2CCC(c3ccccc3)CC2)cc1
  -13.1 | -20.7
> COc1ccc(C)cc1C(C)NC(C)C(=O)c1[nH]c(C)c(C(C)=O)c1C (configuration not stated)
  6.3 | 1.1
> COC(=O)C(O)(c1ccc(N(C)C(=O)OC(C)C)cc1)C(F)(F)F (configuration not stated)
  8.2 | 7.0
> O=C(C1CC1)N1C[C@H]2CN(Cc3cccnc3)C[C@@]2(C(=O)O)C1
  2.0 | -1.6
> CC(=O)Nc1ccc(S(=O)(=O)N2CCN(CCOC(c3ccc(F)cc3)c3ccc(F)cc3)CC2)cc1
  24.0 | 25.0
> NCCc1c[nH]c2ccccc12
  2.4 | -3.2
> NCCc1ccc(CN2C[C@H]3CC=CC[C@H]3C2)cc1
  -4.3 | -4.6
> CCc1c(C)nc(N)nc1N1N=C1SCC(N)=O
  6.8 | 6.1
> c1cncc(N2CCN(Cc3cc4n(n3)CCNC4)CC2)c1
  6.4 | 3.2
> CC(C)(C)c1nn(-c2cccc(F)c2)c2c1C(c1cccs1)SCC(=O)N2CC(=O)O (configuration not stated)
  3.8 | 2.1
> CC(C)N1C2CCC1CN(C(=O)Nc1nnc3ccccn13)CC2 (configuration not stated)
  -5.0&5.6 | -6.6&-2.1
> O=C(Cc1ccc(Cl)c(Cl)c1)N1CCCC(N2CCC(CO)CC2)C1 (configuration not stated)
  23.8 | 8.4
> O=C1C2C3C=CC(O3)C2C(=O)N1c1ccc(Br)cc1 (configuration not stated)
  -2.3 | -4.5
> COc1ccc(F)cc1C(=O)C1CCCN(Cc2ccccn2)C1 (configuration not stated)
  4.0 | 0.0
> CN1N=C(c2ccccc2)NN(C)P1(=S)c1ccccc1 (configuration not stated)
  -3.2&0.9 | -5.2&-0.8
> NNC(=O)c1ccc(O)cc1
  -9.6 | -7.2
> CN(Cc1ncc[nH]1)C1CCC2(CCNCC2)CC1
  3.2 | 0.4
> Cc1ncc(CN2CC=C(c3ccccc3)CC2)c(N)n1
  6.2 | -1.3
> CC(O)CN1CCN(CC(=O)O)CCN(CC(=O)O)CCN(CC(=O)O)CC1.[Gd+3] (configuration not stated)
  -5.2 | 0.5
> CC(=O)CC1CCCCN1 (configuration not stated)
  -8.3 | -11.7
> CC(C)OP(=S)(CC(=O)N1c2ccccc2Sc2ccccc21)OC(C)C
  2.1 | 0.6
> Cc1ccc(CN2CCC3(CCNCC3)C2)c(O)c1
  12.3 | 7.7
> Cc1nc(CC(=O)N2CCN(CCn3cncn3)CC2)cs1
  6.3 | 4.6
> Cc1c(N)c(C)c([N+](=O)[O-])c(C)c1[N+](=O)[O-]
  10.1 | 7.4
> CCNC(=O)c1ccc(-c2cccc3c2CCNC3)s1
  3.3 | 2.7
> CCCCCCCCNC(=O)c1c(N)n(Cc2ccco2)c2nc3ccccc3nc12
  -3.3 | -8.7
> Cc1ccccc1N1C(=O)NC(=O)/C(=C/c2cn(C)c3ccccc23)C1=O
  -13.0 | -19.5
> O=C1C2CCCN2C(c2ccco2)N1c1ccccn1 (configuration not stated)
  9.7 | 5.8
> COC(=O)c1ccc(C(=O)OC)c(NC(=O)c2cccn(Cc3cccc(C)c3)c2=O)c1
  15.2 | 7.8
> CCCN1Cc2cnc(C(=O)NCC3CC3)cc2C1
  23.9 | 17.7
> Cc1cc(NC(=O)c2cccn(Cc3ccccc3)c2=O)no1
  17.4 | 12.4
> O=C1NC(=O)C2(CC(C(=O)N3C[C@@H](c4ccccc4)[C@@H]4[C@H]3C3CCN4CC3)C2)N1 (some centres not stated)
  3.8 | 1.5
> CC(C)n1[nH]c(=O)c2c1NC(=O)CSC2c1ccc2c(c1)OCO2 (configuration not stated)
  -1.0 | 0.9
> Clc1cccc(C2NCc3ccccc3-n3cccc32)c1 (configuration not stated)
  0.1 | -2.6
> CN(Cc1ccccc1)C[C@H]1C[C@@H]2CCN1C[C@@H]2c1cc(-c2ccccc2)nn1C
  -9.7 | -16.4
> O=C1OCCN1N=Cc1ccc([N+](=O)[O-])o1
  1.5 | -3.2
> N#Cc1ccc(Cl)cc1NC(=O)c1cccn(Cc2cccc(C(F)(F)F)c2)c1=O
  18.9 | 7.8
> CC1(C)CC2CC(C)(C1)N2P(=O)(C=C(Cl)c1ccccc1)C=C(Cl)c1ccccc1 (configuration not stated)
  2.3 | -0.1
> COC(=O)c1ccc(COc2cc(C)cc3oc(=O)c4c(c23)CCCC4)o1
  -7.8 | -12.5
> OCCN1CCN(c2cccc(C(F)(F)F)c2)CC1
  10.9 | 4.7
> CN1CCN(c2nc3c(c(=O)[nH]2)CCCC3)CC1
  3.9 | 2.3
> COC(=O)C1C2c3ccccc3OC1(C)N=c1s/c(=C\c3ccccc3)c(=O)n12 (configuration not stated)
  9.8 | 9.2

Source: PubChem BioAssay (Fisher Drug Discovery Resource Center)
